RE007 growth inh: less growth of the S. pombe RE007 Vpr strain; S. pombe RE007 Vpr strain, BacTiter-Glo ATP luminescence, 24 h; control for the full effect not named in the record; Potency, µM (doses to about 92.2 µM), for the others: at the top dose activity change, negative = less growth; 360,000 tested, 0.21% active; AID 651644; active = well fitted falling curve with a large enough effect; inconclusive = small, poorly fitted or top-dose-only effect; inactive = no such curve, though single readings can be large or run the other way;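 also: % is scaled to controls: 0 for no effect and ±100 for the full control effect; nearly all actives have a fitted effect of over 50% in size; the assay follows cell death caused by Vpr and the record does not say whether a fall means rescue or toxicity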
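Fission yeast RE007 carrying one integrated HIV-1 vpr copy, seeded at OD 0.01 in PMG+AL medium with 23 nL pinned compound. Grown 24 h at 30 degrees; viability read by BacTiter-Glo luminescence after 5 min.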
StopGo reporter: FMDV 2A StopGo reporter, luciferase signal; human cells with a luciferase reporter of 2A StopGo recoding; control for the full effect not named in the record; Potency, µM (highest dose often 57.9 µM), for the others: at the top dose signal change, negative = less light; 410,000 tested, 1.2% active; AID 1159524; active = well fitted falling curve with a large enough effect; inconclusive = small, poorly fitted or top-dose-only effect; inactive = no such curve, though single readings can be large or run the other way; tested in HEK293T cells; also: % is scaled to controls: 0 for no effect and ±100 for the full control effect; nearly all actives have a fitted effect of over 45% in size; luciferase light after 4 h
NS1 function inh: inhibitors of influenza NS1 protein function | 270,000 tested, 0.4% active | AID 2326 | S. cerevisiae slowed by influenza A NS1, growth recovery by OD600 | Potency, µM (top dose mostly 46.1 µM), inactives show at the top dose activity, positive = more growth; active means well fitted rising curve with a large enough effect; inconclusive means small, poorly fitted or top-dose-only effect; inactive means no such curve, though single readings can be large or run the other way; also: nearly all actives have a fitted effect of over 50% in size
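Growth recovery, yeast-based: influenza A NS1 expressed in S. cerevisiae causes slow growth, and suppressors are detected by OD600. The parent strain without NS1 is used as positive control.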
Cruzain noTriton: cruzain (T. cruzi) inhibition without detergent. P25779. purified cruzain, Z-FR-AMC fluorescence, no detergent. Potency, µM, without a hit: max response, negative = inhibition, most hits filed as inhibitors. 200,000 tested, 2.3% active. AID 1476;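 also: plate controls were enzyme without inhibitor for no effect and buffer without enzyme for full effect; nearly all actives have a fitted effect of over 40% in size; top concentration of the series not given in the record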
Target sequence (P25779 123-467 limits assumed): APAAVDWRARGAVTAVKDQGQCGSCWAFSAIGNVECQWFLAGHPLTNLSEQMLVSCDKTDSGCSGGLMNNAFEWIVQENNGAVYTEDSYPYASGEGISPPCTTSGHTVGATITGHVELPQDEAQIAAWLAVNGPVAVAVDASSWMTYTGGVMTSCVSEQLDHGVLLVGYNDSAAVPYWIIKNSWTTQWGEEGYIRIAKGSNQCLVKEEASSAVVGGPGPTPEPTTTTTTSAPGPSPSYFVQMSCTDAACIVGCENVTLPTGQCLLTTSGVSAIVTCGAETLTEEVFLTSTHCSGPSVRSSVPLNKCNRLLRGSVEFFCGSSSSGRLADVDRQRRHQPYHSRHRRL
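Purified cruzain at 1.5 nM, pre-incubated 15 min with compound at room temperature in 100 mM sodium acetate pH 5.5, 5 mM DTT, 0.00005% Triton X-100. Reaction started with 2 uM Z-FR-AMC; AMC fluorescence increase over 60 s gives rate.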
LASV entry inh: Lassa virus entry inhibition; 300,000 tested, 1.2% active; Lassa virus pseudotype entry inhibition, cell reporter; control for the full effect not named in the record; Potency, µM (titrated, usually from 37.9 µM), without a hit: at the top dose activity change, negative = inhibition, usual class: inhibitors; active means well fitted inhibition curve with a large enough effect; inconclusive means small, poorly fitted or top-dose-only effect, or effect the other way; inactive means flat fitted curve, though single readings scatter; tested in HEK293 cells; also: % is scaled to controls: 0 for no effect and ±100 for the full control effect; nearly all actives have a fitted effect of over 50% in size; luciferase read-out
MARV entry inh: Marburg virus entry inhibition. Marburg virus pseudotyped entry inhibition, cell reporter; control for the full effect not named in the record; about a third of the inactives were read at about 46 µM. Potency, µM (highest dose often 37.8 µM), for inactives: at the highest dose activity change, negative = inhibition, actives largely listed as inhibitors. 300,000 tested, 1.8% active. AID 540276; active = well fitted inhibition curve with a large enough effect; inconclusive = small, poorly fitted or top-dose-only effect, or effect the other way; inactive = flat fitted curve, though single readings scatter; tested in HEK293 cells; about a fifth of its hits are not listed in these tables; also: % is scaled to controls: 0 for no effect and ±100 for the full control effect; luciferase read-out
Cruzain Triton: blocks cruzain activity in presence of Triton detergent. 200,000 tested, 0.43% active. Potency, µM, inactives show max response, negative = inhibition, actives largely listed as inhibitors. P25779. purified cruzain, Z-FR-AMC fluorescence, 0.01% Triton. AID 1478;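 also: plate controls were neutral wells for no effect and buffer without enzyme for full effect; nearly all actives have a fitted effect of over 40% in size; top concentration of the series not given in the record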
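Cysteine protease activity tested under reducing, mildly acidic conditions (100 mM sodium acetate pH 5.5, 5 mM DTT) plus 0.01% Triton X-100. Cruzain 1.5 nM; substrate Z-FR-AMC 2 uM; 15 min compound preincubation at room temperature.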
SARS PLP yeast: inhibitors of SARS-CoV papain-like protease in yeast. S. cerevisiae expressing SARS-CoV PLpro, growth rescue; control for the full effect not named in the record. Potency, µM (doses to about 32.9 µM), inactives show top-dose activity, positive = growth rescue. 330,000 tested, 0.19% active; active means well fitted rising curve with a large enough effect; inconclusive means small, poorly fitted or top-dose-only effect; inactive means no such curve, though single readings can be large or run the other way; also: 0% is about no effect; nearly all actives have a fitted effect of over 55% in size; growth read by luminescence after 48 h
Starred values were filed as active, the others as inactive; ? = inconclusive; · = no result given; & = joins results of further samples; [ ] = another dose, or the depositor's remark. Unless noted, calls follow the shape of the dose curve; as a rule, active = well fitted curve in the direction sought with a large enough effect; inconclusive = small, poorly fitted or top-dose-only effect, or another doubt; inactive = no such curve, though single readings can be large; an effect the other way counts as inactive or inconclusive. Potency is read from the fitted curve at half-maximal effect.

SMILES	RE007 growth inh	StopGo reporter	NS1 function inh	Cruzain noTriton	LASV entry inh	MARV entry inh	Cruzain Triton	SARS PLP yeast
O=C1C(=Cc2cccn2-c2ccccc2)C(=O)c2ccccc21	-17%	61%[activator]	18%	-16%	0%	?	-3.4%	2%
CCCCc1c(C)nc2ccc(C(=O)OCC)cc2c1Cl	-3%	5%	-3%	-12%	2%	?	-2.6%	20%
O=[N+]([O-])c1cc(S(=O)(=O)N2CCCC2)ccc1O	12%	-10%	-2%	6%	7%	?	-3.5%	11%
C=CCOc1ccc(/C=N/NC(=O)c2cc3c(OC)cc(OC)cc3[nH]2)cc1	-2%	-24%	5%	·	·	·	·	0%
COc1ccc2c(Cl)c(-c3nnc4n3CCCCC4)sc2c1	-22%	21%	-57%	1%	0%	-1%	-3.1%	-6%
CC1CC(C)CN(c2ncnc3c2cnn3Cc2ccc(Cl)cc2)C1 (stereo not drawn)	-10%	?	-43%	4%	-25%	?	-2.9%	7%
OCCCNc1c2c(nc3cc(-c4ccc(Cl)cc4)nn13)CCC2	-25%	1%	2%	·	·	·	·	16%
Cc1cc(C(=O)OCC(=O)Nc2cc(C)on2)c2ccccc2n1	8%	-8%	-7%	-3%	-7%	0%	-4.3%	0%
CCc1cc(C)cc(OCCNC(=O)c2cncc(Br)c2)c1	-3%	-25%	-13%	-1%	-10%	?	-0.4%	-15%
COc1ccc2[nH]c(CN3CCC(CO)(CCOc4ccccc4)CC3)c(C)c2c1	-5%	-25%	0%	·	?	?	·	0%
Cc1ccc(N2C(=O)NC(=O)/C(=C/c3ccc(-c4ccc(C(=O)O)c(Cl)c4)o3)C2=O)cc1	7%	-14%	·	·	1%	0%	·	5%
NS(=O)(=O)c1cccc(NC(=O)c2cc(=O)c3ccccc3o2)c1	-5%	24%	4%	·	4%[46.1 µM]	-7%[46.1 µM]	·	-3%
O=C(c1ccc2c(c1)N(Cc1cccc(Cl)c1)C(=O)c1ccccc1S2=O)N1CCC(Cc2ccccc2)CC1 (stereo not drawn)	·	0%	·	-5%	?	·	-1.9%	·
Cc1csc(NC(=O)CCC(=O)c2cccs2)n1	-10%	47%[activator]	·	·	2%	-3%[46.1 µM]	·	1%
CCCCc1c(O)nc(SCC(=O)Nc2cccc3ccccc23)n(-c2ccccc2OC)c1=O	3%	-16%	18%	·	·	·	·	-2%
CCOc1ccc(C(=O)Cc2ccc3oc(C(=O)O)cc3c2)c(O)c1	3%	33%[activator]	-5%	1%	20%	-19%	0.2%	-2%
COc1ccc(C2(CNS(=O)(=O)c3ccccc3)CCOCC2)cc1	10%	31%[activator]	-5%	·	·	·	·	0%
O=C(/C=C/c1ccco1)NCc1ccc(F)cc1	-7%	32%[activator]	·	·	27%	26%[46.1 µM]	·	-1%
Cc1cccc(-c2nnc(SCC(=O)Nc3ccc(C)c(C)c3)o2)c1	·	-11%	·	-11%	?	29%[46.1 µM]	-0.7%	·
CC(=O)N(c1ccccc1)c1nc2ccccc2s1	10%	15%	·	·	16%[46.1 µM]	?	·	·
CCOC(=O)N1CCc2c(sc3c2c(=O)n(Cc2ccccc2)c(=O)n3CC(=O)NCC2CCCO2)C1 (stereo not drawn)	8%	-3%	13%	·	·	·	·	-2%
CCC1CCCCN1CCCNC(=O)c1cn(CC)c2ccc(S(=O)(=O)N(C)C3CCCCC3)cc2c1=O (stereo not drawn)	-3%	9%&35%	9%	-15%	28%[46.1 µM]	-17%&-17%[46.1 µM]	0.3%	7%
COc1ccc(N=Cc2c(OC)ccc3ccccc23)cc1	1%	21%	·	·	11%	?	·	·
CC(=O)NNc1nc2ccccc2s1	6%	8%	6%	-3%	?	1%	0.8%	?
CCN(CCCNC(=O)c1cc2c(=O)n(CC)c3ccccc3c2s1)c1cccc(C)c1	·	-7%	·	-9%	25%[46.1 µM]	4%[46.1 µM]	-1.1%	·
O=C1C2C3C=CC(CC3)C2C(=O)N1c1ccccc1[N+](=O)[O-] (stereo not drawn)	4%	-2%	·	·	-2%	3%[46.1 µM]	·	5%
CC(=C/c1ccccc1)/C=N/NC(=O)c1ccc2nc[nH]c2c1	19%	29%	11%	7%	?	?	-21%	9%
CC(OC(=O)CCC1CCCC1)C(=O)Nc1ccccc1[N+](=O)[O-] (stereo not drawn)	-5%	-6%	·	·	-3%	7%	·	·
CCC(=O)Nc1ccc(C(=O)OCC(=O)c2cccs2)cc1	23%	57%[activator]	-7%	·	2%	?	·	10%
O=C(CN1CCOCC1)Nc1ccc(Cl)cn1	-7%	6%	6%	·	27%[46.1 µM]	6%[46.1 µM]	·	-2%

At a glance, some entries already given:
SMILES	RE007 growth inh	StopGo reporter	NS1 function inh	Cruzain noTriton	LASV entry inh	MARV entry inh	Cruzain Triton	SARS PLP yeast
CCOC(=O)N1CCc2c(sc3c2c(=O)n(Cc2ccccc2)c(=O)n3CC(=O)NCC2CCCO2)C1 (stereo not drawn)	8%	-3%	13%	·	·	·	·	-2%
CCC1CCCCN1CCCNC(=O)c1cn(CC)c2ccc(S(=O)(=O)N(C)C3CCCCC3)cc2c1=O (stereo not drawn)	-3%	9%&35%	9%	-15%	28%[46.1 µM]	-17%&-17%[46.1 µM]	0.3%	7%
COc1ccc(N=Cc2c(OC)ccc3ccccc23)cc1	1%	21%	·	·	11%	?	·	·

Compounds from the list above containing a COOH group:
SMILES	RE007 growth inh	StopGo reporter	NS1 function inh	Cruzain noTriton	LASV entry inh	MARV entry inh	Cruzain Triton	SARS PLP yeast
Cc1ccc(N2C(=O)NC(=O)/C(=C/c3ccc(-c4ccc(C(=O)O)c(Cl)c4)o3)C2=O)cc1	7%	-14%	·	·	1%	0%	·	5%
CCOc1ccc(C(=O)Cc2ccc3oc(C(=O)O)cc3c2)c(O)c1	3%	33%[activator]	-5%	1%	20%	-19%	0.2%	-2%

Further records.
SMILES	RE007 growth inh	StopGo reporter	NS1 function inh	Cruzain noTriton	LASV entry inh	MARV entry inh	Cruzain Triton	SARS PLP yeast
N#Cc1ccccc1Cn1c(=O)n(Cc2ccc(C(=O)NC3CCN(Cc4ccccc4)CC3)cc2)c(=O)c2ccccc21	·	4%	·	4%	-1%[46.1 µM]	-2%[46.1 µM]	0.4%	·
CCOP(=S)(OCC)N1CCOCCOCCN(P(=S)(OCC)OCC)CCOCCOCC1	-7%	-14%	·	·	?	10µM*	·	-1%
COc1cc(C(=O)NCc2cn3ccccc3n2)cc(OC)c1OC	-13%	·	-1%	1%	5%	7%	0.5%	-10%
COc1ccc(/C=N/NC(=O)C(=O)NCc2cccnc2)cc1	10%	14%	·	·	7%	-3%[46.1 µM]	·	-5%
CN(CCOc1ccc(Cl)cc1)Cc1cccc(S(=O)(=O)N(C)C)c1	-3%	?	1%	·	?	?	·	-12%
CCCOC(=O)c1c(NC(=O)C2CCCO2)sc(C(=O)OC)c1C (stereo not drawn)	2%	?	13%	?	-23%	?	-7.2%	-5%
Cc1ccc(-c2nn(-c3ccccc3)cc2C2CC(c3ccccc3)=NN2C(=O)CCC(=O)O)cc1 (stereo not drawn)	3%	-9%	-29%	·	?	6%[46.1 µM]	·	0%
Cn1nnc(NC(=S)NC(=O)c2ccc(-c3ccc(Br)cc3)o2)n1	2%	-6%	·	·	?	-14%[46.1 µM]	·	-1%
O=C(NCc1ccc2c(c1)OCO2)C1CC(=O)N(C2CCCCCC2)C1 (stereo not drawn)	·	·	1%	2%	-2%	2%	-0.9%	3%
Cc1cccc(NC(=O)c2cc(=O)[nH]c3ccccc23)c1	-16%	-1%	2%	·	·	·	·	?
CCCC(=O)Nc1sc(C)c(C)c1C#N	-11%	32%[activator]	-4%	·	·	0%[46.1 µM]	·	-1%
Cc1noc(C)c1COc1ccccc1C(=O)N(C)CC(=O)Nc1ccc(F)cc1	-7%	-19%	·	·	?	-16%	·	-5%
CCOC(=O)N1CCC(N2CCCC(CO)(Cc3cccc(Cl)c3)C2)CC1 (stereo not drawn)	-11%	-11%	-3%	·	·	?	·	1%
O=c1[nH]c(O)c(N=Nc2ccc(S(=O)(=O)N3CCOCC3)cc2)c(=O)[nH]1	0%	-9%	4%	·	-3%[46.1 µM]	8%[46.1 µM]	·	0%
O=C(CNS(=O)(=O)c1c(Cl)cccc1Cl)OCC(=O)c1ccc[nH]1	-5%	-10%	1%	·	·	·	·	0%
CCc1ccc(Oc2c(C(F)(F)F)oc3c(CN4CCN(C)CC4)c(O)ccc3c2=O)cc1	·	0%	·	9%	-14%[46.1 µM]	1%[46.1 µM]	-3.3%	·
CC1CC(C)CN(C(=O)CSc2nnc(-c3ccc(F)cc3)o2)C1 (stereo not drawn)	-10%	?	-13%	-9%	·	·	-0.4%	17%
CC(=O)Nc1nonc1-c1nnc(SCc2ccc(C)cc2)n1C	·	12%	·	-14%	-11%[46.1 µM]	?	-3.1%	·
CCOC(=O)c1oc2ccc(S(=O)(=O)N3CCOCC3)cc2c1C	4%	8%	-17%	3%	-23%	20%	3.9%	1%
CCOC(=O)c1c(N)ssc1=S	-4%	·	-19%&-2%	-6%	12%	3%&3%	0.3%	-2%&0%
Fc1ccc(OCc2nnc(-c3ccccc3Br)o2)c(Cl)c1	16%	51%[activator]	-14%	·	13%	?	·	-7%
CC(C)N(Cc1nc(-c2ccc(Cl)cc2)no1)C(=O)c1cccs1	17%	-28%	-40%	-9%	0%	?	-6.9%	-16%
Cc1ccc(S(=O)(=O)Nc2c(C)[nH]c(=O)[nH]c2=O)cc1C	5%	-6%	5%	19%	-5%	?	-0.5%	1%
O=C(NNC1=NC2(CCCC2)Cc2ccccc21)c1cccnc1	-24%	-13%	8%	·	-1%	-21%[46.1 µM]	·	0%
O=C(CCS(=O)(=O)c1nc(-c2ccc3c(c2)OCO3)cc(C(F)(F)F)n1)Nc1ccc(F)cc1F	·	?	·	?	12%[46.1 µM]	?	-20%	·
Cc1cc(C)cc(C(=O)N2CCN(c3ccccn3)CC2)c1	9%	-19%	-3%	·	24%[46.1 µM]	4%[46.1 µM]	·	0%

Assay outcomes deposited in PubChem BioAssay by National Center for Advancing Translational Sciences (NCATS).
